# TRPML1 blocker = human mucolipin-1 channel inhibition. TRPML1-inducible cells, Ca2+ dye fluorescence, FDSS; active compounds read low; inhibition of EC80 agonist-evoked calcium signal. activity change, negative = inhibition, % (concentration not given with the values). hit rate 0.02% among 390,000; in the data active means activity change below about -50%; inconclusive means about -30% to -50%; inactive means above about -30%;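 also: stimulus is agonist 54-4 at its EC80 concentration; % is scaled to controls: 0 for no effect and ±100 for the full control effect; the text of the record puts the active cut at -80%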
#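 Calcium fluorescence in TRPML1-DL cells induced overnight with Tet: a 110 s read after compound pin addition, then a 110 s antagonist read after challenge with 54-4 at 4 uM final (EC80).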
# TRPML1 agonist = human mucolipin-1 channel agonism. Q9GZU1. TRPML1-expressing cells, Ca2+ dye fluorescence, FDSS; host cell line not named in the record; reference of the full effect not given here. activation, % (test concentration not listed). hit rate 0.12% among 410,000. AID 624414; in the data active = activation above about 50%; inconclusive = about 30% to 50%; inactive = below about 30%; also: 0% is about no effect; the text of the record puts the active cut at 80%
#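 Calcium fluorescence on an FDSS kinetic reader gave the read-out. Tet-induced TRPML1-DL cells were plated overnight, dye-loaded (Ca8 with quencher, 45-90 min, room temperature, dark), then read 110 s after compound addition, and again 110 s after 4uM final 54-4 (EC80).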
# Menin-MLL FL inh = displaces fluorescein MLL peptide from human menin. Fluorescence polarization, fluorescein-MLL peptide displacement from menin. 290,000 tested, under 10 active. FP activity change, % at 61.4 µM; inconclusive = falling polarisation curve, or a change in total fluorescence; inactive = total fluorescence flat and polarisation flat or rising; no compound was filed as active; the % refers to the polarisation; negative = inhibition;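 also: % of control where 0% means no effect; inhibitors lower the polarisation; unlabelled MLL peptide was the positive control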
# ClpP mod = qHTS Assay for Activators of ClpP; Potency, µM (highest dose often 57.5 µM), for the others: top-dose activity change, negative = active; purified B. subtilis ClpP, FRET peptide cleavage, 20 min; AID 651965, 2013; hit rate 1.9% among 340,000; active = well fitted falling curve with a large enough effect; inconclusive = small, poorly fitted or top-dose-only effect; inactive = no such curve, though single readings can be large or run the other way; also: potency is read from the fitted curve at half-maximal effect; the source files actives as falling curves though it sought activators and does not explain the sign; nearly all actives have a fitted effect of over 65% in size; many hits overshoot -100%
# Target sequence (P80244 whole entry, looked up): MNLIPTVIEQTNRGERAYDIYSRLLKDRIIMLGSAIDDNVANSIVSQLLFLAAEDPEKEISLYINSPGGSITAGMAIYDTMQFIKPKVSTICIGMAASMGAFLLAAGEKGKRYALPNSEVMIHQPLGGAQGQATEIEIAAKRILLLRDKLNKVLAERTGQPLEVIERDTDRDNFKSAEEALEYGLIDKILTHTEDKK
#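 Buffer: 100 mM Tris/HCl pH8, 100 mM KCl, 0.05% low protease BSA, 2.5% glycerol, 0.01% Tween-20. ClpP 10 microg/mL final; 20 min RT; delta FRET normalized to ADEP and DMSO controls.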
# PINK1 modulator = PINK1 expression modulation; PINK1 immunofluorescence, high-content cytometry, 24 h; Potency, µM (series often up to 76.6 µM), inactives show top-dose activation (PINK1 increase), hits mostly activators; hit rate 0.2% among 410,000; AID 624263; active = well fitted activation curve with a large enough effect; inconclusive = small, poorly fitted or top-dose-only effect; inactive = flat fitted curve, though single readings scatter; cell line not stated here;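 also: potency is read from the fitted curve at half-maximal effect; % of control where 0% means no effect; nearly all actives have a fitted effect of over 65% in size; a mitochondrial uncoupler was the plate control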
#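 A stable cell line was treated with compounds at 5 concentrations for 24 hours, with CCCP as control. PINK1 levels and mitochondrial localization were measured by immunofluorescence with mitochondrial, cell and nuclear markers after fixation, read by laser-scanning cytometry.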
# Sfp PPTase inh = blocks B. subtilis Sfp PPTase activity. Potency, µM, without a hit: max response, negative = inhibition, actives largely listed as inhibitors. hit rate 3.5% among 310,000. Q9F4F7. Biochemical Sfp PPTase activity, qHTS; active = well fitted inhibition curve with a large enough effect; inconclusive = small, poorly fitted or top-dose-only effect, or another doubt; inactive = no such curve, though single readings can be large or run the other way;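 also: the enzyme is Sfp with the accession as filed and its product quenches rhodamine fluorescence; potency is read from the fitted curve at half-maximal effect; 0% = enzyme reaction without inhibitor and -100% = no enzyme wells; top concentration of the series not given in the record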
#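 With Hepes-Na pH 7.6 buffer containing 10 mM MgCl2, Sfp (15 nM) modified BHQ-2-YbbR (12.5 uM) using rhodamine-CoA (5 uM). Two reads 30 minutes apart at 525/598 nm yielded each well's rate.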
# TRPV1 potentiator = potentiators of human vanilloid receptor 1 (TRPV1); Q8NER1; TRPV1-expressing cells, Fluo-8 calcium influx, capsaicin EC20 potentiation; host cell line not named in the record; control for the full effect not named in the record; potentiation, % at 8.33 µM; hit rate 0.02% among 320,000; AID 540277; active means potentiation above 80%; inconclusive means 30% to 80%; inactive means below 30%; also: 0% is about no effect
# Target sequence (Q8NER1 whole entry, looked up): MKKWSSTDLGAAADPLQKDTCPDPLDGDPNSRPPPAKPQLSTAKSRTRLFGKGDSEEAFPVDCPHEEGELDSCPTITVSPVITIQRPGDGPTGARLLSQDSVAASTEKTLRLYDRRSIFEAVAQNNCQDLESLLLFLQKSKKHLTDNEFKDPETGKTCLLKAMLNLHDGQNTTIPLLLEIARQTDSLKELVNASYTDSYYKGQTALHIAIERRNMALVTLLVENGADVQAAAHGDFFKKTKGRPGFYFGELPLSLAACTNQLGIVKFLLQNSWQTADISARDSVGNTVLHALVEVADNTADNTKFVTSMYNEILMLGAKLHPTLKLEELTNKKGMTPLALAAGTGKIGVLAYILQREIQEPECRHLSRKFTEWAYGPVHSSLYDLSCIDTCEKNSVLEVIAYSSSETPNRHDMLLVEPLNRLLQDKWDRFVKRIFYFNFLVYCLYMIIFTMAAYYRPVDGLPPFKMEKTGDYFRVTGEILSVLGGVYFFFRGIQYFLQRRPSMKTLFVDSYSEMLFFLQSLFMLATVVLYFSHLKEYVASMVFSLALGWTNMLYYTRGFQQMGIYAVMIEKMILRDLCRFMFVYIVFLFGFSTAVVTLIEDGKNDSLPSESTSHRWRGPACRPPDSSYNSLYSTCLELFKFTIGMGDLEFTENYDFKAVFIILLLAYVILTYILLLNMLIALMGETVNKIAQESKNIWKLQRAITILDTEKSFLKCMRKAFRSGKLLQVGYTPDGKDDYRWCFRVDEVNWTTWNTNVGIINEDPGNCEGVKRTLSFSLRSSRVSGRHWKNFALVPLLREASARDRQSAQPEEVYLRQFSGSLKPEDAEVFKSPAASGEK
#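 Cells expressing TRPV1 were dye-loaded with Fluo-8 and read kinetically: 10 s baseline, 3 min after compound (agonist portion), then 2 min after EC20 capsaicin (allosteric enhancer portion). Calcium-bound dye fluorescence at 480/520 nm.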
# Active calls of the source: *; ? = inconclusive; nt = no result given; & = joins results of further samples; [ ] = remark or other dose.
SMILES,TRPML1 blocker,TRPML1 agonist,Menin-MLL FL inh,ClpP mod,PINK1 modulator,Sfp PPTase inh,TRPV1 potentiator
Cc1cccc(C(=O)N2CCc3cc(CNC(=O)CCc4ccccc4)ccc32)c1,0,0.7,nt,-3.1%,1.1%,nt,nt
CCN1C[C@@H]2[C@@H]3C(=O)N(C)C(=O)[C@@H]3[C@](C)(C(=O)OC)N2C1=NC,-3,2.8,nt,-0.8%,-1.2%,nt,nt
Cn1nc(C(F)(F)F)c(C#N)c1N1CCN(c2cccc(C(F)(F)F)c2)CC1,43,-0.3,-0.7,-1.1%,2.3%,?,1
Cc1ccc(/C(N)=N/OC(=O)N2c3ccccc3Sc3ccccc32)cc1,-8,-0.3,nt,-1.4%,1.4%,nt,nt
Cc1ccc2[nH]cc(C(=O)CN3CCOCC3)c2c1,-12,0.7,7.8,-4.8%,-2.7%[38.3 µM],-9%,26
Cc1ccc(C(=O)NCCc2ccncc2)cc1,4,-0.3,2.5,0.8%,4.6%[38.3 µM],-1%,-8
CCOC(=O)c1nn(-c2ccc(Cl)cc2)c2nc(-c3ccc(C)cc3)c(C#N)c(=O)n12,41,4.2,2.3,25µM*,-1.9%,-9%,1
CCOc1ccc(CCNC(=O)Cn2c(-c3cccs3)cc3ccccc32)cc1OCC,14,3.0,nt,8.9µM*,21%,nt,nt
COc1ccc(C2=CC(c3ccc(F)cc3)n3nnnc3N2)cc1 (stereo not given),0,-0.6,4.5,?,-1.9%[38.3 µM],-11%,19
CCCCN1CNC(=S)N(Cc2ccccc2)C1,-20,0.5,1.0,-7.2%,-2.7%,4%,3
O=c1[nH]c2ccc(NS(=O)(=O)c3ccc(Cl)cc3)cc2[nH]1,-4,-0.5,-0.3,nt,0.6%,5%,3
COc1cc(CN(CC(C)C)S(=O)(=O)c2ccccc2Br)cc(OC)c1,80,1.4,nt,2.6%,2.3%,nt,nt
CC(C)(C)NCc1cc(Br)ccc1OCc1cccs1,20,1.8,1.6,-1.1%,0.7%,-8%,-4
COc1ccc(OC)c(S(=O)(=O)n2c([N+](=O)[O-])cnc2C)c1,-17,0.6,-6.3,-0.4%,-1.8%,2%,-2
CN(Cc1ccccc1)C(=O)c1ccc(NC(=O)Cc2ccc(NC(=O)C3CCN(C(=O)C4CCCC4)CC3)cc2)cc1,-2,1.1,nt,-0.8%,1.5%,nt,nt
Cc1cc(NC(=O)CSc2nnc(-c3ccco3)o2)no1,-3,-0.1,-7.7,0.7%,0.1%,-23%,-8
O=C1c2ccccc2C(=O)N1CC(O)COc1ccc(Br)cc1 (stereo not given),-11,-0.2,-1.6,nt,1.6%,19%,-41
CC12CCC3C(C1)C(C(=O)O2)C(=O)OC3(C)C (stereo not given),7,0.3,nt,-4.7%,0.2%,nt,nt
CC(=O)Nc1ncc(Sc2ccc([N+](=O)[O-])cc2)s1,-7,-0.2,nt,1.3%,5.7%,nt,nt
O=C(OCc1cc(=O)n2ccsc2n1)C1(c2ccc(Cl)cc2)CC1,9,1.4,nt,-22%,-1.2%,nt,2
O=c1ccn([C@@H]2O[C@H](CNCC3=Cc4cc(O)ccc4OC3)[C@@H](O)[C@H]2O)c(=O)[nH]1,3,2.6,nt,0.4%,3.0%,nt,nt
CCc1ccc(CNC(=O)C2CCN(S(=O)(=O)N3CC(C)CC(C)C3)CC2)cc1 (stereo not given),-1,-0.5,-0.7,-0.6%,2.8%,12%,-4
CCOc1ccc(NC(=O)Nc2ccc3c(c2)CCC3)cc1,-8,-0.3,nt,0.9%,1.8%,15%,4
O=C(NCCCCc1ccccc1)c1cccc(NC(=O)C2CC2)c1,12,-0.9,nt,-2.3%,-0.2%,nt,nt
C=CCN(c1ccccc1)S(=O)(=O)c1cccc(C(=O)Oc2ccc3c(C)cc(=O)oc3c2)c1,22,0.7,-3.4,0.5%,-2.2%,12%,-1
CCN1CCN(c2cc3c(cc2F)c(=O)c(C(=O)O)cn3C2CC2)CC1,6,-0.8,5.8&-2.3,0.4%,0.7%,15%&-16%,-6
Cc1ccccc1C(=O)c1ccccc1C(=O)c1ccccc1,37,3.1,nt,-1.9%,-0.9%,nt,nt
CC(C)C(=O)c1cc2c(cc1NC(=O)Nc1cccc3ccccc13)OCCO2,nt,nt,8.2,nt,nt,16%,?
O=C(Cn1cnc2sc(-c3ccccc3)cc2c1=O)NCCc1ccccc1,6,0.8,3.2,-3.4%,4.2%,-17%,5
CCn1c(=S)sc2c(=O)n(CC(=O)Nc3ccc(OC)cc3)c(C)nc21,-4,0.0,-1.4,1.1%,3.2%,22%,8
CCOc1ccc(NC(=O)CCCn2c(=S)[nH]c3ccsc3c2=O)cc1,15,0.9,-3.7,nt,2.6%,3%,3
O=C(Nc1ccccc1)N1CCc2scc[n+]2-c2ccccc21,10,-0.4,1.2,1.4%,0.9%,?,-8
CC(=O)c1cccc(NC(=S)N2c3ccccc3CC2C)c1 (stereo not given),0,-0.2,-0.5,nt,1.7%,-21%,-8
O=C(COc1ccc2ccccc2c1)Nc1ccccc1C(=O)O,-2,4.5,-1.0,-12%,0.9%,12%,4
O=S(=O)(c1cccc(NC(=S)N2CCN(c3ccc(F)cc3)CC2)c1)C(F)F,25,0.2,3.0,-1.2%,3.5%,29%,18
COc1cccc(CNC(=O)CCS(=O)(=O)c2cccs2)c1,12,0.7,2.6,0.6%,3.1%,33%[activator],16
COc1cc(C(=O)Nc2ccc(C)cc2)c(-n2cnnn2)cc1OC,28,2.9,-1.3,1.2%,-0.6%,8%,-1
O=C(Cc1coc2ccc3ccccc3c12)NCc1ccccc1,-8,3.5,-2.0,-9.1%,16%[38.3 µM],4%,-21
Cc1cc(C)c(S(=O)(=O)NCc2ccccn2)cc1C,9,0.6,-1.8,-2.7%,-1.2%,8%,-24
Cc1c(-c2nc(-c3ccc4c(c3)OCO4)no2)nnn1-c1cccc(C(F)(F)F)c1,9,0.1,nt,-2.5%,0.4%,nt,nt
O=C(CN1CCN(S(=O)(=O)c2ccc(Cl)cc2)CC1)Nc1ccc2c(c1)CCC2,-1,1.4,3.6,-4.0%,-3.0%,-12%,2
CC(=O)NCCc1nc2cc(NC(=O)COc3cccc(C)c3)ccc2n1C,-6,0.2,4.3,nt,-1.3%,6%,-10
CCOC(=O)c1ccc(NC(=O)CN2CCN(c3ccccc3)CC2)cc1,7,0.1,-0.3,-0.6%,-1.4%,21%,8
COc1ccc2c(c1)c1c(n2C)[C@@H]2CC=C(CO)[C@@H](C1)N2C,49,-0.9,nt,-8.0%,-0.9%,nt,nt
C=CCn1c(SCC(=O)Nc2cccnc2Cl)nnc1-c1ccccc1F,6,2.6,1.8,-1.1%,-1.3%,5%,-5
COc1ccc(CCn2c(=N)c(S(=O)(=O)c3ccccc3)cc3c(=O)n4ccccc4nc32)cc1,-10,0.4,?,-6.4%,1.3%,4%,-8
CCOC(=O)N1CCN(CC(=O)c2ccc3c(c2)CCN3C(C)=O)CC1,0,-0.3,0.5,-15%,0.3%,-24%,?
CCOCCCNC(=O)C(Cc1ccccc1)NS(=O)(=O)c1ccc2c(c1)c(=O)n(C)c(=O)n2C (stereo not given),23&25,0.5&-0.4,1.5,-14%,-0.9%&0.2%,15%,10
CCOc1ccccc1N1CCN(c2nc3ccccc3nc2C(C#N)C(=O)OC(C)C)CC1 (stereo not given),16,0.3,0.9,0.9%,1.7%,8%,-4
COc1ccc(/C=N\NC(=O)c2ccccc2)cc1COc1ccc(F)cc1,46,2.2,3.2,-4.6%,1.6%,6%,-11
Cc1ccccc1NC(=O)c1c(C)oc2ccc(O)c(CN3CCC(C)CC3)c12,-22,-1.3,nt,1.5%,0.7%,nt,nt
COc1ccccc1-c1cnc2c(c1)C(=O)N([C@@H](C)CO)C[C@@H](C)[C@@H](CN(C)C(C)=O)O2,-7,0.2,nt,-14%,0.2%,nt,nt
Cc1nn(-c2ccccc2)nc1C(=O)NNC(=O)c1ccc(C(F)(F)F)cc1,6,0.7,0.2,nt,1.0%,10%,-33
O=C(Nc1ccc2oc(-c3ccccc3Cl)nc2c1)c1cncc(Br)c1,1,0.1,2.8,646%,?,-10%,16
COc1ccc2cc(C(C)=O)c(=O)oc2c1,-2,1.0,-2.8,-21%,-1.0%,0%,-5
CC(NC(=O)c1cc(F)c(F)c(F)c1F)c1ccc(-n2ccnc2)cc1 (stereo not given),-5,0.7,nt,0.9%,-0.8%,30%,-9
Cc1c(C(=O)NCc2ccccc2Cl)sc2nc3n(c(=O)c12)CCC3,34,-0.6,nt,-24%,6.1%,nt,nt
O=C(COC(=O)C1CCN(c2ccc(C(F)(F)F)cn2)CC1)Nc1cccc(F)c1,0,3.4,nt,nt,7.0%,nt,1
O=C(CN1CCN(S(=O)(=O)c2ccc(F)cc2)CC1)Nc1ccc(F)cc1F,6,0.4,4.2,-1.0%,1.7%,7%,-12
O=C(NCCCO)C(=O)c1c(-c2ccccc2)cc2ccccn12,1,-0.1,1.0,nt,-1.2%,16%,-3

# Part of the list above with just TRPV1 potentiator and Sfp PPTase inh.
Molecule,TRPV1 potentiator,Sfp PPTase inh
O=C(COC(=O)C1CCN(c2ccc(C(F)(F)F)cn2)CC1)Nc1cccc(F)c1,1,nt
O=C(CN1CCN(S(=O)(=O)c2ccc(F)cc2)CC1)Nc1ccc(F)cc1F,-12,7%

# Given with values under each structure: part of the list above.
# Fields: TRPML1 blocker | TRPML1 agonist | Menin-MLL FL inh | ClpP mod | PINK1 modulator | Sfp PPTase inh | TRPV1 potentiator
> CCOC(=O)c1ccc(NC(=O)CN2CCN(c3ccccc3)CC2)cc1
    7 | 0.1 | -0.3 | -0.6% | -1.4% | 21% | 8
> O=C(CN1CCN(S(=O)(=O)c2ccc(F)cc2)CC1)Nc1ccc(F)cc1F
    6 | 0.4 | 4.2 | -1.0% | 1.7% | 7% | -12

# Remaining list, next part.
SMILES,TRPML1 blocker,TRPML1 agonist,Menin-MLL FL inh,ClpP mod,PINK1 modulator,Sfp PPTase inh,TRPV1 potentiator
O=C(CSc1n[nH]c(=O)[nH]c1=O)Nc1ccc(Br)cc1Br,10,0.4,nt,-0.4%,-1.3%,nt,-1
O=c1cc(CN2CCN(c3cccc(Cl)c3)CC2)c2cc3c(cc2o1)CCCC3,-8,0.1,-0.4,-1.7%,8.1%[38.3 µM],-12%,11
CCOC(=O)C1CCN(c2ccc(C(=O)O)cc2[N+](=O)[O-])CC1,-5,-0.5,2.1,-2.5%,-0.1%,15%,-1
Cc1cc(OCCn2cc(C(=O)c3cccs3)c3ccccc32)ccc1Cl,29,2.0,nt,-11%,-0.3%,nt,nt
O=C(Cc1cccs1)N/N=C/c1ccco1,2,0.4,4.2,-1.3%,0.2%,0%,5
